VDR inhibitor: blocks the human vitamin D receptor; AID 504847; 400,000 tested, 0.93% active; Potency, µM, for the others: max response, negative = inhibition, most hits filed as inhibitors; VDR-SRC2-3 peptide fluorescence polarization, 2 h; active = well fitted inhibition curve with a large enough effect; inconclusive = small, poorly fitted or top-dose-only effect, or another doubt; inactive = no such curve, though single readings can be large or run the other way; note: series mostly up to about 120 µM
Target sequence (P11473 whole entry, looked up): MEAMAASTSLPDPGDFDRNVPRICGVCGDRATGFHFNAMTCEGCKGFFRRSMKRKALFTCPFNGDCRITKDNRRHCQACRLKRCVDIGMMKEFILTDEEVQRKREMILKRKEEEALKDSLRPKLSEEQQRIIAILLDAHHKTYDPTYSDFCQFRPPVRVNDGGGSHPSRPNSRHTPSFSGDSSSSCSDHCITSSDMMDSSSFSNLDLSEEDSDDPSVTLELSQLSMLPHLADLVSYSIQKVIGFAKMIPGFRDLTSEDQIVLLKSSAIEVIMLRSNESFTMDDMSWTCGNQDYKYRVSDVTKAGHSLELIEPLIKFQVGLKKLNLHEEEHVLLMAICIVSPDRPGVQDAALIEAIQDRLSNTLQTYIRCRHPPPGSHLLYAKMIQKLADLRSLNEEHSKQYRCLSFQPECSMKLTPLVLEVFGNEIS
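After 23 nl compound addition and a short centrifugation, plates sat for 2 hours at ambient temperature; polarization of fluorescence then indicated loss of VDR binding to peptide SRC2-3.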
Active calls of the source: *; u = inconclusive; & = joins results of further samples; [ ] = another dose, or the depositor's remark. % is set by controls: 0 for no effect and ±100 for the full control effect; potency is the fitted concentration of half-maximal effect.

SMILES	VDR inhibitor
CN(CC(=O)Nc1ccccc1C(F)(F)F)C(=O)C1CCN(S(=O)(=O)c2ccc3c(c2)OCCO3)CC1	-5%
Cc1ccc(NC(=O)CSCc2cc(=O)n3cc(C)sc3n2)cc1	-4%
COc1ccc(CC(=O)NC(C)CCc2ccccc2)cc1 (stereo not given)	-3%
C/C(=N\NC(=O)Cc1cccn1C)c1cccc2ccccc12	-14%
Fc1cc(F)cc(NC(=S)NN2CCOCC2)c1	2%
COc1ccc(C)cc1NCC(=O)Nc1ccc(C(C)(C)C)cc1	0%
COCc1[nH]nc2c1C(c1ccc(OC)c(OC)c1)C(C#N)=C(N)O2 (stereo not given)	-4%
CCOC(=O)C1=C(CS(=O)(=O)c2ccccc2)NC(=O)NC1c1cccc(OC)c1 (stereo not given)	-7%
COc1ccc(F)cc1S(=O)(=O)Nc1ccncc1	-11%
O=C(NNc1cc(N2CCOCC2)nc(N2CCOCC2)n1)C12CC3CC(CC(C3)C1)C2	-2%
O=C(Oc1cccc([N+](=O)[O-])c1)c1ccc2c(=O)n3c(nc2c1)CCC3	u
Cc1cc(NC(=O)c2cc(-c3cccc(Cl)c3)on2)n(-c2ccccc2)n1	5%
Cn1c(=O)c2c(nc(Br)n2CCSc2nnnn2-c2ccccc2)n(C)c1=O	6%
Cc1cccc(NS(=O)(=O)c2ccc(NC(=O)CN(c3cc([N+](=O)[O-])ccc3C)S(C)(=O)=O)cc2)c1	16%
O=C(Nc1ccc2c(c1)oc1ccccc12)c1cccnc1	10%
O=C(c1ccc(C(F)(F)F)cc1)C1CCCN(C(=O)Cn2cnnn2)C1 (stereo not given)	-2%
CC(=O)c1cnn(-c2cc(Oc3cccc(C)c3)ncn2)c1C	16%
Cc1ccccc1OCc1nc2ccccc2c(=O)n1/N=C/c1cn[nH]c1-c1ccccc1	-18%
O=C(c1ccc2c(=O)n(C3CCCC3)c(=S)[nH]c2c1)N1CCc2ccccc21	-5%
CC(C)c1[nH]nc2c1C(c1ccc(OC(=O)c3ccco3)cc1)C(C#N)=C(N)O2 (stereo not given)	-3%
C=CC[C@H](CC(=O)NCCO)C(=O)N[C@@H](COC(=O)[C@@H](CC=C)Cc1ccc(F)cc1)Cc1ccccc1	14%
CCn1c(CNC(=O)c2ccc(Cl)cc2)nnc1SCC(=O)NC1=NCCS1	-7%
Cc1ccc(C(=O)NCCNC(=O)CN2CCCC2)cc1	6%
CCOC(=O)N1CCN(C(=O)CSc2ncccn2)CC1	7%
Cc1cccc(N2CCN(C(=O)CCNS(=O)(=O)c3ccc4c(c3)CCN4C(=O)C3CC3)CC2C)c1 (stereo not given)	10%

(list continues)
SMILES	VDR inhibitor
CCOC(=O)/C(=N\Nc1ccccc1)c1csc(Nc2ccc(C)cc2)n1	-10%
COc1ccc2nc(SCC(N)=O)[nH]c2c1	2%
CC(C)SC1=NC(C)(C)C=C(/C=C/c2c(Cl)cccc2Cl)N1	-11%
CC1=C(C(N)=O)C(c2ccc(C)cc2)n2nc(SCc3ccccc3)nc2N1 (stereo not given)	-8%
CCn1cc(Br)c(C(=O)Nc2ccc(F)c(Cl)c2)n1	2%
CSc1ccc(/C=N/NC(=O)CNc2cccc3ccccc23)cc1	-18%
COc1ccc(-n2c(COc3ccc4c(c3)OCO4)nnc2SCC(=O)O)cc1	7%
Cc1cccc(OCC(=O)NCCCNC(=O)c2cccnc2)c1	3%
CC(C)(C)c1ccc(S(=O)(=O)NC(Cc2ccccc2)C(=O)O)cc1 (stereo not given)	58%[activator]
O=C(Nc1ccc2nc(SCCOc3ccccc3)sc2c1)c1cccs1	-5%
Cc1cc(C)cc(OCCCC(=O)O)c1	12%
COC(=O)c1ccccc1S(=O)(=O)N(CCCN1CCOCC1)Cc1cccs1	13%
C=CCOc1ccc(/C=C/C(=O)OCC(=O)NCCc2ccccc2)cc1	-16%
COc1cccc2c(=S)c(CCC(C)=O)c(C)[nH]c12	-6%
CCc1cc(CNC(=O)c2ccc(OC3CCN(C(C)=O)CC3)c(OC)c2)on1	11%
Cc1sc2nc(COC(=O)c3ccc(O)cc3)[nH]c(=O)c2c1C	-15%
O=c1c2ccccc2oc2cc(-c3ccc(CN4CCOCC4)cc3)ccc12	-11%
O=C(CSc1ncccc1C(=O)Oc1ccccc1Cl)Nc1ccc(C(F)(F)F)cc1Cl	14%
COCCCNC(=O)Cn1nc(N2CCN(c3ccccc3)CC2)ccc1=O	-4%
CCCNC(=O)c1sc2c(c1C(=O)Nc1ccccn1)CCCC2	9%
CC(=O)Nc1cc2c(cc1Cl)-c1ccc(F)cc1C2O (stereo not given)	-7%
CC(C)C[C@@H](N)c1nnc(SCC(=O)c2ccc(Cl)cc2)o1	u
COc1ccc(N2C(=O)C(Cl)=C(Nc3ccccc3OC)C2=O)cc1	-8%
Cc1ccc(CN2CCCn3nc(C(=O)NCC(C)c4ccccc4)cc3C2=O)cc1 (stereo not given)	11%
Cc1cc(C)n(S(=O)(=O)c2ccc3oc(=O)ccc3c2)n1	9%

Structural class: the compounds so far with an NH in an aromatic ring
SMILES	VDR inhibitor
COCc1[nH]nc2c1C(c1ccc(OC)c(OC)c1)C(C#N)=C(N)O2 (stereo not given)	-4%
Cc1ccccc1OCc1nc2ccccc2c(=O)n1/N=C/c1cn[nH]c1-c1ccccc1	-18%
O=C(c1ccc2c(=O)n(C3CCCC3)c(=S)[nH]c2c1)N1CCc2ccccc21	-5%
CC(C)c1[nH]nc2c1C(c1ccc(OC(=O)c3ccco3)cc1)C(C#N)=C(N)O2 (stereo not given)	-3%
COc1ccc2nc(SCC(N)=O)[nH]c2c1	2%
COc1cccc2c(=S)c(CCC(C)=O)c(C)[nH]c12	-6%
Cc1sc2nc(COC(=O)c3ccc(O)cc3)[nH]c(=O)c2c1C	-15%

Continuation:
SMILES	VDR inhibitor
COC(=O)c1cc(Cl)c(NC(=O)/C=C/c2ccc(OC)c(OC)c2)cc1OC	-17%
CCN(c1ccccc1)S(=O)(=O)c1c[nH]c2ccc([N+](=O)[O-])cc12	-3%
Cc1[nH]c2ccccc2c1C(c1ccncc1)N1CCN(c2ccccn2)CC1 (stereo not given)	-28%
Cc1cc(OCC(=O)N[C@@H](Cc2c[nH]c3ccccc23)C(=O)O)c2c(C)c(C)c(=O)oc2c1	-5%
CCOc1c2ccccc2nn1CCO	1%
COc1ccc(-c2nc(O)c3cnccn23)cc1	-17%
CC1CCN(S(=O)(=O)c2ccc3ncn(CC(=O)Nc4ccccc4C(F)(F)F)c(=O)c3c2)CC1	19%
CCN(C[C@H]1N[C@@](CC)(C(=O)OC)[C@H]2C(=O)N(C)C(=O)[C@@H]12)C(=O)C1CCCCC1	-11%
O=C1c2ccccc2C(=O)N1CCC#Cc1ccc2cc(C3(O)CCCCC3)oc(=O)c2c1	-9%
Cc1c(C)c2ccc(OCC(=O)Nc3ccc(N4CCC(C)CC4)cc3)cc2oc1=O	-9%
CCCN(C(=O)c1sc2nc3n(c(=O)c2c1C)CCCC3)c1ccccc1C	4%
O=C(NC1CCCC1)C1CC(=O)N(CCc2ccccc2)C1 (stereo not given)	17%
Cc1cccc(C(=O)N(c2ccccn2)C(C)c2ccco2)c1 (stereo not given)	-24%
O=C(Nc1ccc2c(c1)OCO2)Nc1ccc(Br)cn1	-2%
O=C(c1cncc(Br)c1)N1CCN(S(=O)(=O)c2ccccc2)CC1	18%
Cc1ccc(-n2c(SCC(N)=O)nc3c(oc4ccccc43)c2=O)cc1C	-6%
CN(c1ccc(C(=O)Nc2ccccn2)cc1)S(=O)(=O)c1ccccc1	-3%
O=C(CN(Cc1ccccc1)C(=O)CCC(=O)Nc1nccs1)NCc1ccc(F)cc1	-6%
CCOc1cc(N2CCOCC2)c(OCC)cc1NC(=O)c1cccc(N(C)C)c1	11%
C/C(=N\Nc1nc2ccccc2[nH]1)c1cc2ccccc2o1	3%
O=C(Nc1ccc(Cl)cc1)N(C1=NCCC1)c1ccc(OC(F)F)cc1	0%
CC(c1ccccn1)N(CCN(C)C)C(=S)Nc1ccccc1F (stereo not given)	-4%
Cc1cc(NC(=O)CSc2nnc(-c3c[nH]c4ccccc34)n2C)no1	-3%
Cn1c(CN2CCOCC2)nnc1SCC(=O)NC1CCCCC1	7%
CCc1ccc(N2CC(c3nc4ccccc4n3Cc3ccccc3C)CC2=O)cc1 (stereo not given)	3%

(continued)
SMILES	VDR inhibitor
COc1ccc(C(=O)c2ccc3oc(-c4ccc(OC)cc4)c(C#CCCO)c3c2)cc1	7%
Cc1c(-c2nc3ccccc3[nH]2)cnn1C	18%
NS(=O)(=O)c1ccc2nc(NC(=O)Nc3ccc(F)cc3)sc2c1	-5%
C=CC[C@@H](CC(=O)N[C@@H](CO)Cc1ccccc1)C(=O)N[C@H](COC(=O)[C@H](CC=C)CC(=O)OC(C)(C)C)Cc1c[nH]c2ccccc12	-10%
COc1ccc(NC(=O)CSc2nc(-c3ccco3)cc(C(F)(F)F)n2)cc1OC	-6%
CC(NC(=O)c1cccs1)c1nnc(SCc2ccc(Cl)cc2Cl)n1C (stereo not given)	-6%
O=c1c2nnn(Cc3ccccc3)c2ncn1C/C=C/c1ccccc1	-10%
O=C(C1CCN(S(=O)(=O)c2ccccc2)CC1)N1CCN(c2ccccc2)CC1	-10%
CC(C)(C)c1ccc(OCCNC(=O)c2ncn[nH]2)cc1	-1%
COc1ccc(-c2nc3cnc(N4CCN(C)CC4)nc3n(C)c2=O)cc1	-4%
COc1ccc(S(=O)(=O)N2CCN(C(=O)c3cccs3)CC2)cc1OC	8%
O=C(CCc1nnc(Cc2ccc3c(c2)OCO3)o1)NCCc1ccccc1Cl	u
O=C(NCc1ccccn1)c1ccc2c(c1)N(Cc1ccccc1)CCS2	0%
Cn1c(=O)[nH]c(=O)c2c1nc(N1CCOCC1)n2CC(O)COc1ccc2ccccc2c1 (stereo not given)	-18%
CCOc1ccccc1NC(=O)Nc1cccc(C(C)=O)c1	-15%
Cc1c(Cl)cnc(NC(=O)COC(=O)[C@@H](NC(=O)c2ccco2)C(C)C)c1Cl	u
CCN(CC)CCC(=O)N1C/C(=C/c2ccccc2)C(=O)/C(=C\c2ccccc2)C1	45µM*
O=C(c1ccc(-c2ccccc2Cl)o1)N1CCN(c2ccccc2O)CC1	9%
Cc1nc2nc(SCC(=O)Nc3ccccc3Cl)nn2c(C)c1Cc1ccccc1	-8%
C=CCC(=O)N1CCCC(CO)(Cc2ccc(F)cc2F)C1 (stereo not given)	-11%
COc1ccc(CCN2CC(C(=O)OCC(=O)NC(Cc3ccccc3)C(C)=O)CC2=O)cc1OC (stereo not given)	2%
COc1cc(/C=C2\CCn3c2nc2cc(C(=O)O)ccc2c3=O)ccc1OC(F)F	-22%
CCCCN(C(=O)CC1CCCC1)c1c(N)n(CC(C)C)c(=O)[nH]c1=O	-18%
Cc1ccc(C(=O)NCC(c2cccnc2)N2CCc3ccccc3C2)cc1C (stereo not given)	17%
Cc1ccc(S(=O)(=O)c2nc(C)c3c(n2)CCC3)cc1	1%

Continuation.
SMILES	VDR inhibitor
CSc1c(-c2ccccc2)nc2ccc(Cl)cc2c1C(=O)O	8%
Cc1ccc(C)c(N2CCN(C(=O)CCS(=O)(=O)c3ccc4c(c3)oc(=O)n4C)CC2)c1	-10%&-3%
CCC(=O)NCCc1nc(-c2ccccc2)no1	-9%
Cc1ccc(N(C)S(=O)(=O)c2ccc(-c3cc(C)no3)s2)cc1	-7%
Cc1cc(C)cc(NS(=O)(=O)c2ccc(NC(=O)C3CCCCC3C(=O)O)cc2)c1 (stereo not given)	8%
NC(=O)c1cccc(N)c1	-6%
CN(C)c1ccc(C(=S)N2CCOCC2)cc1Br	-6%
CCN1/C(=C2/OC(=S)N(C)C2=O)Sc2ccccc21	-10%
Cc1cc2nc(-c3ccc(=O)[nH]c3)n(Cc3ccccc3)c2cc1C	-17%
O=C(Nc1nc2ccccc2[nH]1)C1CC(=O)N(c2ccc3c(c2)OCCO3)C1 (stereo not given)	-8%
COC(=O)C1CCN(C(=O)CN2C(=O)c3ccccc3S2(=O)=O)CC1	9%
O=C(NCc1ccc(-c2nc3ccccc3s2)cc1)c1ccc(Br)o1	6%
O=C(/C=C/c1cccc([N+](=O)[O-])c1)OCC(=O)c1ccccc1	-9%
COc1ccc(NC(=O)CN2CCN(CC(=O)Nc3ccccc3F)CC2)cc1OC	33%&6%[activator]
Cc1snc2sc(C(=O)c3ccc(Br)cc3)c(N)c12	0%
COC(=O)c1c[nH]c(=O)c2ccccc12	u
Cn1cnc(S(=O)(=O)N2CCN(c3ccc(F)cc3)CC2)c1	-12%
C#CCOc1c(Cl)cc(/C=C2/C(=O)ON=C2C)cc1OC	u
COc1ccc(OCC(=O)N/N=C/c2cccc3cccnc23)cc1	11%
Cc1ccc(Cl)cc1NC(=O)C1COc2ccccc2O1 (stereo not given)	26%
Cc1ccc(NC(=O)c2cc3c(Cl)nc4ccc(C)cc4c3s2)c(Cl)c1	-9%
Cc1cc(NC(=O)CSc2nnc(-c3ccccc3F)n2C)no1	6%
COc1ccc2c(-c3ccccc3)cc(N3CCOCC3)nc2c1	7%
COc1ccc(CCN(Cc2cccs2)S(=O)(=O)c2ccc(-n3cnnn3)c(OC)c2)cc1OC	9%
O=C1CC(c2ccccc2Cl)CC(O)=C1C=NCCCO (stereo not given)	-14%
C/C(=N\NC(=O)C1CC1)c1cccs1	-16%
CCn1ccnc1CNC(=O)C1CCC(=O)N(Cc2cccc(C(F)(F)F)c2)C1 (stereo not given)	-23%
CCOC(=O)N1CCN(S(=O)(=O)c2ccc(OC)c(OC)c2)CC1	11%

Random excerpt: three entries already listed
SMILES	VDR inhibitor
Cc1cc(NC(=O)CSc2nnc(-c3ccccc3F)n2C)no1	6%
Cc1ccc(C)c(N2CCN(C(=O)CCS(=O)(=O)c3ccc4c(c3)oc(=O)n4C)CC2)c1	-10%&-3%
NC(=O)c1cccc(N)c1	-6%

The list is partial (hit frequency here may not be typical).
